Beta apoptosis – beta cell apoptosis inhibition | INS-1E cytokine-induced death, ATP luminescence, 48 h; percent of positive-control rescue, neutral wells zero | protection from apoptosis, % (test concentration not listed) | actives 0.8% (n = 300,000);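 active = all replicates at 75% or more, or half of them and the mean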;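 also: 0% = cytokine-treated negative control wells and 100% = positive control rescue; higher means more ATP so stronger rescue from cytokine killing; wells of about 40 µL received 100 nL stock; the first replicate is given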
Ecoli growth – E. coli growth inhibition; Escherichia coli growth, OD600, 23 h; hits give low values; actives 0.21% (n = 330,000); OD600 absorbance (concentration not given with the values);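 active = OD600 absorbance below the run mean of sample wells minus 3.6 SD, in any replicate, cut at about 0.56 in these data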;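 also: stock transfer was 300 nL into about 60 µL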
Ecoli rRNA inh – inhibitors of bacterial rRNA selective over humanized ribosomes. E. coli WT GFP vs humanized-ribosome RFP mutants, fluorescence, 24 h; hits give low values; DMSO median 0, no signal -100. actives 1.6% (n = 350,000). GFP signal change (wild-type ribosome), % (no concentration beside the values). AID 720706;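 active = significant combined selectivity score with lowered wild-type GFP, culture density cut under 30%, mutant RFP and density less affected; inactive = any of these conditions unmet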; also: one replicate is shown; some compounds called inactive have numbers as strong as hits
MLL AF4-AF9 inh – inhibitors of human MLL-AF4/AF9 interaction. actives 0.47% (n = 350,000). AlphaScreen, biotin-AF4 peptide binding to FLAG-AF9. P42568. inhibition, % at 10 µM;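 active = every replicate reaching a set inhibition limit, whatever the replicate mean, cut at about 25% in these data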;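 also: 0% = plate neutral control median and 100% = total signal loss; the record names both 10 and 1 µM as test concentration; the first replicate is given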
Target sequence (P42568 whole entry, looked up): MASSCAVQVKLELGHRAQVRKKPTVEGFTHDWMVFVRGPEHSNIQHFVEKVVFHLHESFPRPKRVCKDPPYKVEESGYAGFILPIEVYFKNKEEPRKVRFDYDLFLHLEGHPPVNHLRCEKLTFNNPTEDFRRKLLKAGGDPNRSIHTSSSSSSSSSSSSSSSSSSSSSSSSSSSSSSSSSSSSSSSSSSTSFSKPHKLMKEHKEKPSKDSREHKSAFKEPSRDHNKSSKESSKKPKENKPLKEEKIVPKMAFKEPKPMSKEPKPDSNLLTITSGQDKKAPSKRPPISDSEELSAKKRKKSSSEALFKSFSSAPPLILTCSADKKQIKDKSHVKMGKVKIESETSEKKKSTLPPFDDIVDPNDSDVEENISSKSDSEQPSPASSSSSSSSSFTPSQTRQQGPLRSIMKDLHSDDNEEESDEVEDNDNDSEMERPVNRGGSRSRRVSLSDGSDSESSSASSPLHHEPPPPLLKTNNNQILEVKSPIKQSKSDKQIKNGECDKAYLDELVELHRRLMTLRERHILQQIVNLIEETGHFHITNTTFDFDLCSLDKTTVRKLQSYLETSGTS
FGF22 binding – FGF22 (human) thermal shift binding. calls only at 9.99 µM. actives 1.5% (n = 340,000). recombinant FGF22 thermal shift, SYPRO orange fluorescence; percent of sucrose octasulfate shift, DMSO zero. Q9HCT0. AID 651658;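 active = melting point raised past a set limit in the mean and every replicate; three in four hits are not shown here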
T cruzi repl – blocks replication of Trypanosoma cruzi. AID 1885. T. cruzi beta-gal in NIH3T3, luminescence, 90 h. actives 1.4% (n = 300,000). inhibition, % (no concentration beside the values);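 active = mean inhibition across valid replicates above about 55%, limit read from the data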;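 also: signal also drops with host cell toxicity which is not excluded here; 0% = plate median of DMSO wells and 100% = zero luminescence signal; higher percent means less beta-gal luminescence so fewer parasites; stock transfer was 50 nL into about 50 µL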
UCH37 inh – blocks the human deubiquitinase UCH37; actives 0.33% (n = 330,000); purified proteasome/UCH37, Ub-AMC cleavage fluorescence; Q9Y5K5; inhibition, % (concentration not given with the values);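 active = mean of two replicates above 20%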;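 also: 0% = compound-free wells with enzyme and 100% = wells lacking proteasome; stock transfer was 100 nL into about 20 µL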
Target sequence (Q9Y5K5 whole entry, looked up): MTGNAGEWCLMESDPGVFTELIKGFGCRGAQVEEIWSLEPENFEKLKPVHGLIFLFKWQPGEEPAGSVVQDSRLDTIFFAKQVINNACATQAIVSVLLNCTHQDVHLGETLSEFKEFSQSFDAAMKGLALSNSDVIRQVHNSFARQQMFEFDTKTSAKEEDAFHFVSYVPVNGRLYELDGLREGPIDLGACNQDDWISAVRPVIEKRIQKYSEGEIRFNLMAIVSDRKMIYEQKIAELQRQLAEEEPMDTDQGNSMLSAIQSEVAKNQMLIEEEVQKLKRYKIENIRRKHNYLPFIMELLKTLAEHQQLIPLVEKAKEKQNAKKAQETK
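System: Proteasome-associated human UCH37 deubiquitinase; Input: 0.15 nM proteasome in added enzyme buffer; Also added: Ub-AMC substrate from 1 µM stock; Incubation: 30 min compound-proteasome preincubation then 25 min substrate reaction, room temperature; Detection: fluorescence, ex 355 nm, em 460 nm; Read-out: % inhibition of Ub-AMC cleavage fluorescence; Benchmarks: no-proteasome and no-compound wells.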
A1 inh – inhibitors of the anti-apoptotic protein A1, read as caspase activation; caspase activation, % (concentration not given with the values); AID 2462; actives 0.066% (n = 330,000); MEF A1-2A-BIM cells, Caspase-Glo 3/7 luminescence, 3 h; percent of clofoctol response, vehicle zero;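 active = over half of replicate activation scores above 10%, or exactly half above 10 with the replicate mean above 10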;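 also: wells of about 30 µL received 50 nL stock; many hits fall short of the cut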
Ecoli rRNA inh OD600 – second read-out of Ecoli rRNA inh, no call of its own (marks repeat the call); OD600 change, %; measured here: OD600 growth;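 optical density of the mix in the first replicate; 0 = DMSO median and -100 = no signal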
Ecoli rRNA inh RFP – second read-out of Ecoli rRNA inh, no call of its own (marks repeat the call); RFP signal change, %; measured here: RFP humanized mutant strains;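 first replicate; 0 = DMSO median and -100 = no signal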
Starred values were filed as active, the others as inactive; i = inactive; . = no result given. This is a subset; the hit share may differ from the screen's.

A first look, 2 compounds:
SMILES	Beta apoptosis	Ecoli growth	Ecoli rRNA inh	Ecoli rRNA inh OD600	Ecoli rRNA inh RFP	MLL AF4-AF9 inh	FGF22 binding	T cruzi repl	UCH37 inh	A1 inh
Nc1ccccc1NC1=CC(=O)CC(c2ccco2)C1 (centres undefined)	0	0.75	.	.	.	.	.	2	-3.2	0.2
Cc1cc([N+](=O)[O-])ccc1NC(=S)NC1CCCC1	7	0.68	-17	-19	1.1	1.7	i	-5	5.9	-0.1

Results (from the top)
SMILES	Beta apoptosis	Ecoli growth	Ecoli rRNA inh	Ecoli rRNA inh OD600	Ecoli rRNA inh RFP	MLL AF4-AF9 inh	FGF22 binding	T cruzi repl	UCH37 inh	A1 inh
Nc1ccccc1NC1=CC(=O)CC(c2ccco2)C1 (centres undefined)	0	0.75	.	.	.	.	.	2	-3.2	0.2
Cc1cc([N+](=O)[O-])ccc1NC(=S)NC1CCCC1	7	0.68	-17	-19	1.1	1.7	i	-5	5.9	-0.1
Cc1ccc(OCCC(=O)OCc2csc(CC(=O)Nc3ccccc3C)n2)cc1	-4	0.71	14	13	1.0	0.2	i	-7	4.0	-0.8
CCc1c(C)nc2ncnn2c1N1CCCC(C(=O)NCc2ccco2)C1 (centres undefined)	-3	0.64	.	.	.	.	.	-3	1.2	0.4
CCn1cc(C(=O)NCC(OC)OC)c(=O)c2cc(S(=O)(=O)N(C)C3CCCCC3)ccc21	6	0.7	-12	-9	3.8	2.2	i	8	-1.0	-0.9
CCOC(=O)c1cccc(NC(=O)c2ccc(NC(=O)C3CCCO3)cc2)c1 (centres undefined)	6	0.65	-9	-3	-2.8	-2.2	.	-4	5.7	0.6
CCOc1ccccc1C1C(C#N)=C(N)Oc2cc(C)n(Cc3ccccn3)c(=O)c21 (centres undefined)	-3	0.67	.	.	.	.	.	-7	0.1	0.2
N#Cc1cccc(NS(=O)(=O)c2ccccc2Cl)c1	-8	0.62	2	1	-1.8	-3.1	i	.	2.6	-0.4
CC1CC(Nc2ccccc2N)=CC(=O)O1 (centres undefined)	-3	0.76	.	.	.	.	.	-5	0.8	-0.5
CCN(CC)CCn1c2c(c(SCC(=O)Nc3ccc(F)c(F)c3)nc1=O)CCC2	-4	0.65	5	5	-2.5	1.3	i	39	4.5	0.9
CCc1ccc(C)c(OC(=O)c2cncc(Br)c2)c1	-3	0.71	-6	-4	-4.4	-1.7	i	-6	1.9	0.5
NC(=O)CC1C(=O)N(c2ccc(Cl)cc2)C(=S)N1NC(=O)c1cccc(F)c1 (centres undefined)	.	0.66	-23	-33	-6.9	-4.1	i	-18	0.9	-0.3
Cc1ccc(NS(=O)(=O)c2ccccc2[N+](=O)[O-])cc1S(=O)(=O)N1CCCCC1	-2	0.71	-18	-19	7.8	-6.2	i	.	4.8	1.1
COC(=O)c1ccc(N2C(=O)CC(Sc3n[nH]c(C)n3)C2=O)cc1 (centres undefined)	-1	0.7	.	.	.	.	.	-7	1.3	0.7
Cc1ccc(Cn2cc(CCC(=O)O)c3ccccc32)cc1	1	0.66	-22	-7	9.9	-1.6	i	-8	0.2	0.1
CC(=O)N1CCN(C(=O)c2cc(-c3ccc(C)o3)nc3ccccc23)CC1	.	0.64	13	20	0.1	-1.9	i	-4	i	-1.3
Nc1c(Cl)cc(Cl)cc1C(=O)OCC(=O)N1CCOCC1	-13	0.61	9	-7	-0.7	-0.3	i	-14	i	0.3
CCOc1c2ccc(C(=O)N[C@H](C)C3CCCCC3)cc2nn1CC	-3	.	-2	-2	-4.2	4.5	i	-3	-69	1.4
CC[C@]1(C(=O)OC)[C@H]2C(=O)N(Cc3ccccc3)C(=O)[C@H]2[C@H]2CN=C(SCC3CC3)N21	.	0.68	-11	0	-3.3	0.7	i	.	1.3	.
CSc1nccc(-c2nn(-c3ccc(C)cc3)ccc2=O)n1	2	0.77	.	.	.	.	.	-36	-14	-0.2
CC(=O)c1ccc(OCCCC(=O)NCCc2ccccc2)cc1	-6	0.74	7	6	2.5	-1.1	i	0	-2.6	0.1
CCc1nnc(NC(=O)c2cc(S(=O)(=O)N(CC)CC)ccc2Cl)s1	-2	0.72	-30	-24	-1.8	-6.9	i	-6	1.9	0.9
Cc1cccc(NC(=S)Nc2cccc3ccccc23)c1	18	0.68	-2	7	-0.2	1.2	i	-11	-3.6	-0.2
Cc1ccc(NC(=O)CSc2nc(=O)n(CCN3CCOCC3)c3c2CCCC3)cc1	0	0.68	-3	-2	-3.6	0.9	i	-3	1.8	-0.4
N#Cc1c(-c2cccnc2)c2c([nH]c1=S)CCCC2	-4	0.73	.	.	.	.	.	-10	0.9	1.0

Further compounds follow:
SMILES	Beta apoptosis	Ecoli growth	Ecoli rRNA inh	Ecoli rRNA inh OD600	Ecoli rRNA inh RFP	MLL AF4-AF9 inh	FGF22 binding	T cruzi repl	UCH37 inh	A1 inh
CS(=O)(=O)c1ccc(-n2c(=O)n(Cc3ccccc3)c(=O)c3[nH]cnc32)cc1	-2	0.63	-2	6	-2.3	5.1	i	-12	5.0	0.0
Cc1cccc(NS(=O)(=O)c2cccs2)c1	-9	0.67	.	.	.	.	.	-22	2.3	0.0
COC(=O)c1cc(OC)c(OC)cc1NC(=O)CC1CCCCC1	-10	0.71	-14	-8	1.3	-1.2	i	31	-8.0	0.8
O=c1[nH][nH]c(-c2ccccc2)c1C=Nc1ccccc1Cl	-9	0.7	.	.	.	.	.	5	7.6	1.1
CC(=O)c1ccc(S(=O)(=O)NCCC(=O)OCC(=O)N(Cc2ccccc2)C(C)(C)C)cc1	-1	0.62	-1	-17	-2.2	-0.9	i	.	1.0	1.7
COc1cc(/C=N\NC(=O)c2ccc(-c3ccccc3)cc2)cc(Br)c1O	18	.	-4	8	-0.1	0.2	i	8	.	0.6
O=C1c2cccnc2C(=O)N1c1ccccc1-c1ccccc1	-1	0.68	.	.	.	.	.	-6	1.4	-0.1
COc1ccc(OCC(=O)N/N=C2/C=C(C)CC2)cc1	-7	.	11	20	2.6	-3.9	i	-1	.	-0.2
NCCCCCNC(=O)c1[nH]cnc1C(=O)N[C@@H](Cc1ccccc1)C(=O)OCc1ccccc1	-1	.	-2	-12	10	9.6	i	.	1.4	-0.3
Cn1c(SCc2ccccc2)nccc1=O	.	0.69	22	16	4.1	-2.4	i	.	5.0	.
Cc1cccc(/C=N/NC(=O)CC(=O)NCCc2ccccc2)c1	.	.	15	13	0.7	-2.8	i	0	.	-0.5
Cc1ccc(CN2CCNC(=O)C2CC(=O)NCc2cc(C)n(C)n2)cc1 (centres undefined)	-9	0.72	7	10	-0.9	4.1	i	-11	-11	-0.5
CC(=O)c1c(C)[nH]c(C(=O)COC(=O)c2nccnc2N)c1C	-1	0.69	5	7	4.0	2.2	i	.	-419	-0.5
CS(=O)(=O)N(CC(=O)NCc1cccnc1)C1CCCCC1	0	0.68	9	5	-6.3	-0.3	i	-23	4.9	0.0
CCOc1ccc(-c2cccc(NS(=O)(=O)c3ccc([N+](=O)[O-])cc3)c2)nn1	.	0.69	-1	-5	-0.9	-0.4	i	27	3.9	-0.4
COc1ccc(NC(=O)c2ccco2)cc1NC(=O)c1c(OC)cccc1OC	7	0.69	-2	-3	-0.8	-1.2	i	-7	5.0	0.4
O=C(O)CC1(CC(=O)Nc2ccc(Oc3cccc(C(F)(F)F)c3)nc2)CCCC1	-6	0.63	-12	0	0.6	-1.3	i	-5	8.1	0.1
Cc1oc(-c2ccccc2F)nc1CS(=O)CC(=O)NCc1ccc2c(c1)OCO2 (centres undefined)	-8	0.71	-2	-7	1.4	-18	i	42	4.9	0.4
Cn1cnnc1SCCCN1C(=O)c2cccc3cccc(c23)C1=O	2	0.69	-14	-8	-4.2	0.6	i	16	-22	0.6
O=C(O)/C=C/C(=O)NC1CCCCCCCCCCC1	-2	0.7	-13	-4	-5.0	3.6	i	3	-2.1	-0.3
Cc1ccc(-n2nnc3c(=O)n(CC(=O)NCc4ccccc4)cnc32)cc1	-1	0.78	7	9	-0.4	-3.7	i	-23	6.1	0.5
Cc1ccc(NC(=S)NNC(=O)c2c(Cl)c(C)nn2C)cc1	29	0.63	.	.	.	.	.	-6	-2.1	-0.2
COc1ccc(CCN(C)Cc2ccc(OC)c(OCc3ccccc3)c2)cc1OC	-1	0.66	-7	-13	-9.6	4.9	i	45	4.6	1.1
CC(=O)N1c2ccc(S(=O)(=O)NC(CC(=O)O)c3ccc(Br)cc3)cc2CC1C (centres undefined)	-2	0.71	5	11	-1.4	-3.8	i	-20	0.9	-0.3
COc1cc2nc(CN(C)Cc3ccc(F)cc3)[nH]c(=O)c2cc1OC	-3	0.72	1	3	1.0	-1.2	i	-9	4.2	0.5
Cc1cc(C(=O)COC(=O)C2=COCCO2)c(C)n1-c1ccc2c(c1)OCO2	-3	0.74	.	.	.	.	.	-13	3.4	0.1

6 entries from above, bar-delimited:
structure | Beta apoptosis | Ecoli growth | Ecoli rRNA inh | Ecoli rRNA inh OD600 | Ecoli rRNA inh RFP | MLL AF4-AF9 inh | FGF22 binding | T cruzi repl | UCH37 inh | A1 inh
COc1ccc(NC(=O)c2ccco2)cc1NC(=O)c1c(OC)cccc1OC | 7 | 0.69 | -2 | -3 | -0.8 | -1.2 | i | -7 | 5.0 | 0.4
COC(=O)c1cc(OC)c(OC)cc1NC(=O)CC1CCCCC1 | -10 | 0.71 | -14 | -8 | 1.3 | -1.2 | i | 31 | -8.0 | 0.8
Cc1oc(-c2ccccc2F)nc1CS(=O)CC(=O)NCc1ccc2c(c1)OCO2 (centres undefined) | -8 | 0.71 | -2 | -7 | 1.4 | -18 | i | 42 | 4.9 | 0.4
NCCCCCNC(=O)c1[nH]cnc1C(=O)N[C@@H](Cc1ccccc1)C(=O)OCc1ccccc1 | -1 | . | -2 | -12 | 10 | 9.6 | i | . | 1.4 | -0.3
Cc1cc(C(=O)COC(=O)C2=COCCO2)c(C)n1-c1ccc2c(c1)OCO2 | -3 | 0.74 | . | . | . | . | . | -13 | 3.4 | 0.1
CS(=O)(=O)N(CC(=O)NCc1cccnc1)C1CCCCC1 | 0 | 0.68 | 9 | 5 | -6.3 | -0.3 | i | -23 | 4.9 | 0.0
